High-throughput results (PubChem BioAssay)
Beta2AR agonist = agonists of human beta-2 adrenergic receptor inducing internalization; P07550; Am2.2-beta2AR cells, FAP receptor internalization, flow cytometry; reference of the scale not given here; response, % (concentration not given with the values); hit rate 0.43% among 340,000; AID 504454;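 active means response above a set limit, near 3 SD of response in nonfluorescent compounds, cut at about 42% in these data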;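 further: stock transfer was 100 nL into about 11 µL; a reference agonist was the positive control; negative values mostly stem from fluorescent compounds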
UCH37 inh = blocks the human deubiquitinase UCH37. hit rate 0.33% among 330,000. Q9Y5K5. purified proteasome/UCH37, Ub-AMC cleavage fluorescence. inhibition, % (concentration not given with the values). AID 588478;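 active means mean of two replicates above 20%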;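 further: 0% = compound-free wells with enzyme and 100% = wells lacking proteasome; stock transfer was 100 nL into about 20 µL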
Target sequence (Q9Y5K5 whole entry, looked up): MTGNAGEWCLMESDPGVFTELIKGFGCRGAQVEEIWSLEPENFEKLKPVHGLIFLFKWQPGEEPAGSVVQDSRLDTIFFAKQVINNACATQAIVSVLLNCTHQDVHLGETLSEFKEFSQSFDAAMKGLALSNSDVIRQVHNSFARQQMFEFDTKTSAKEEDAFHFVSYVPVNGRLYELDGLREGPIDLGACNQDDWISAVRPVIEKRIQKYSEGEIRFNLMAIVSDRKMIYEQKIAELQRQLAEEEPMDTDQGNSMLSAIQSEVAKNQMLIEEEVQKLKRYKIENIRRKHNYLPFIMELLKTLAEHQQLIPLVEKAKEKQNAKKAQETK
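Assay system: Proteasome-bound UCH37. Buffer or medium: pH 7.4 Tris-HCl (50 mM) with ovalbumin, ATP-MgCl2, DTT. Incubation: 30 min preincubation with enzyme, 25 min cleavage at room temperature. Measured by: fluorescence, ex 355 nm, em 460 nm. Read-out basis: percent inhibition. Control set: wells without proteasome as full block, compound-free enzyme plus substrate as uninhibited.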
LANA-H2B inh = blocks KSHV LANA binding to histone H2A/H2B. inhibition, % (concentration not given with the values). Q9QR71. cell-free LANA-H2A/H2B peptide, fluorescence polarization. AID 2629. hit rate 0.6% among 320,000; in the data active means inhibition mostly above about 10%, no sharp cut-off; inactive means mostly below about 6.7%;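 further: stock transfer was 7.5 nL into about 10 µL; 0% = median of vehicle wells and 100% = median of positive control wells; one replicate is shown; the record names a cut of 25% in any replicate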
FGF22 binding = shifts melting point of recombinant human FGF22; Q9HCT0; recombinant FGF22 thermal shift, SYPRO orange fluorescence; percent of sucrose octasulfate shift, DMSO zero; calls only at 9.99 µM; hit rate 1.5% among 340,000; AID 651658;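 active means melting point raised past a set limit in the mean and every replicate; inconclusive means no clear call; three in four hits are not shown here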
Target sequence (Q9HCT0 whole entry, looked up): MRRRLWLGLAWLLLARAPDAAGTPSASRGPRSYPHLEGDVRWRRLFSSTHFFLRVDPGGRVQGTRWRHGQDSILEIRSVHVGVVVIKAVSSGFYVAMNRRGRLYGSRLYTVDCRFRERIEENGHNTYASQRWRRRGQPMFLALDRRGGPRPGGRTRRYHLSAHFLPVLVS
E coli growth = blocks Escherichia coli growth; OD600, 23 h; hits give low values; OD600 absorbance (concentration not given with the values); hit rate 0.21% among 330,000;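 active means OD600 absorbance below the run mean of sample wells minus 3.6 SD, in any replicate, cut at about 0.56 in these data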;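 further: stock transfer was 300 nL into about 60 µL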
ALR H2O2 inh = human ALR oxidase inhibition via reduced H2O2; purified ALR, DTT oxidation, H2O2 HRP-luminol luminescence; AID 485317; inhibition, % (concentration not given with the values); hit rate 3.8% among 290,000;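 active means mean and each replicate at 75% or more; inconclusive means only one of the two met; inactive means neither met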;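 further: stock transfer was 7.5 nL into about 7.5 µL; 0% = neutral wells and 100% = wells with inactivated enzyme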
HNF4A DNA FP = change in binding of human HNF4 alpha to DNA; HNF4a-FITC DNA binding, fluorescence polarization, 1 h; activity change, % at 10 µM; hit rate 0.3% among 360,000; in the data active means activity change above about 30%, passing the limit was not always enough;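 further: controls were the assay level and a saturating level of protein; the project sought stronger binding though the title names inhibitors; some compounds called inactive have numbers as strong as hits; positive values seem to mean higher polarization but the record does not say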
Target sequence (P41235 whole entry, looked up): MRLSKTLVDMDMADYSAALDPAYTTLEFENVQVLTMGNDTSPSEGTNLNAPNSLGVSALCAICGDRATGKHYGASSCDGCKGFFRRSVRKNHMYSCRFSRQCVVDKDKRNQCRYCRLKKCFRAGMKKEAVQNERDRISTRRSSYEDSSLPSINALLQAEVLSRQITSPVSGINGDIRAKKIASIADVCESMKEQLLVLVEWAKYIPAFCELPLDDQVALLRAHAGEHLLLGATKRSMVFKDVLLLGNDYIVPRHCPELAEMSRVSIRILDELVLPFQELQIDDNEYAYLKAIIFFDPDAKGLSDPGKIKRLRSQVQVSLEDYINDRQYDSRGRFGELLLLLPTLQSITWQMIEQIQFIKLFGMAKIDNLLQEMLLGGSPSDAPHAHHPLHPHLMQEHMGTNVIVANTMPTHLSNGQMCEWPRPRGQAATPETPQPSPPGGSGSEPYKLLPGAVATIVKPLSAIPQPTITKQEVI
Numbers without * were called inactive; i = inactive; ? = inconclusive; · = no result given.

SMILES	Beta2AR agonist	UCH37 inh	LANA-H2B inh	FGF22 binding	E coli growth	ALR H2O2 inh	HNF4A DNA FP
CC(C)(C)c1cc(C(F)(F)F)nc(SCCCNC(=O)c2ccco2)n1	7.9	4.9	3.9	·	0.718	·	0.2
C=CCn1c(SCC(=O)N2CCCC2)nc2scc(-c3cccs3)c2c1=O	-4.3	·	-0.7	·	·	-1.3	0.0
Cc1ccc(C(=O)CNc2ccccc2)cc1	1.9	5.2	-4.6	i	0.7	-6.4	2.6
CCOC(=O)N1CCN(c2ncnc3scc(-c4ccccc4)c23)CC1	-10.9	4.3	-3.9	i	0.678	6.1	7.6
Cc1ccc(N(CC(=O)NCc2ccncc2)S(C)(=O)=O)cc1Cl	8.8	0.4	-1.9	·	0.66	-3.5	-2.0
Nc1ncn(-c2ncc(C(F)(F)F)cc2Cl)n1	0.9	0.0	4.6	i	0.658	·	-1.1
COC(=O)Nc1ccc(S(=O)(=O)N2CCCC(C(=O)N3CCN(C)CC3)C2)cc1 (centres undefined)	-2.5	-0.1	7.6	i	0.746	·	0.6
COc1cc(/C=N/NC(=O)C(=O)NCC2CCCO2)ccc1O (centres undefined)	3.0	·	0.1	·	·	98.9*	2.5
Cc1ccc(C(=O)OCC(=O)NC(C)C)cc1S(=O)(=O)N1CCOCC1	-0.3	4.1	-2.6	i	0.691	-49.0	-10.7
CC(C)(C)C1=Nn2c(nnc2-c2n[nH]c3c2CCC3)SC1	-14.0	1.1	-1.8	·	0.71	43.8	3.3
CCn1cc(C(=O)NCCCN2CCC(C)CC2)c2cc(OC)c(OC)cc2c1=O	-7.5	3.0	-2.2	i	0.736	·	8.4
CC(NC(=O)OCc1ccccc1)c1ccccc1 (centres undefined)	0.9	4.9	1.7	i	0.673	-3.6	-2.8
O=C(NCc1ccc(N2CCCC2=O)cc1)C1CCC(=O)N(Cc2ccccc2F)C1 (centres undefined)	0.9	-2.6	1.5	i	0.688	-14.5	-0.2
O=C(N/N=C/c1ccc(OCCCF)cc1)c1cc(OCC(F)(F)F)ccc1OCC(F)(F)F	-7.7	·	0.9	·	·	-2.7	0.4
O=C(CC1SC(=Nc2ccccc2)N(CCCCO)C1=O)NCc1ccccc1 (centres undefined)	0.2	25.9*	-2.9	·	0.675	-8.3	-0.4
CC1(C)Cc2c(sc3nc(-c4ccccc4Cl)n(N)c(=O)c23)CO1	-7.8	-0.7	2.3	·	0.742	-3.8	0.7
Oc1cccc2ccc(/C=C/c3ccc(Br)s3)nc12	2.4	1.0	-0.4	i	·	-16.6	18.2
CCOC(=O)N1CCC(N2Cc3cccc(C(=O)Nc4ccc(S(=O)(=O)N(CC)CC)cc4)c3C2=O)CC1	12.4	-78.8	3.4	i	0.658	-1.1	-3.1
COc1cc(NC(=O)COC(=O)C2CC2)c(C)cc1[N+](=O)[O-]	2.0	4.8	8.4	·	0.665	-21.1	2.2
COc1ccccc1N1CCN(CCCNC(=O)Cn2ncc3c([nH]c4ccccc43)c2=O)CC1	5.2	0.7	2.5	i	0.639	-6.4	-4.0
Cc1nccn1CCCNC(=O)C1CCC(=O)N(Cc2ccccc2F)C1 (centres undefined)	7.4	0.4	·	i	0.658	2.6	1.7
O=C(Nc1nc(-c2ccccn2)cs1)c1ccc(F)c(S(=O)(=O)N2CCOCC2)c1	10.8	3.9	-2.9	i	0.654	-1.7	4.2
Cc1cccc(Nc2ccc(C(=O)N3CCOCC3)cn2)c1	-2.3	0.8	-1.7	i	0.648	-2.4	-2.5
Cn1nc(C(F)(F)F)c(-c2ccc(Br)cc2)c1NC(=O)c1cccnc1	-3.0	4.5	-2.9	i	0.644	-5.5	-3.1
COc1cccc(N=C2CC(C)(C)CC(=O)/C2=C(/O)c2ccccc2)c1	1.5	-67.5	-1.4	i	0.713	-9.9	-3.9
COc1ccc(C[C@H]2CN3C(=NC[C@@H]3C)N2CCNC(=O)CCC2CCCCC2)cc1	2.2	1.1	3.6	i	·	-4.6	1.6
Cc1ccc(C)c(NC(=O)NNC(=O)CCc2ccccc2)c1	-0.9	-0.2	1.0	i	0.653	-8.5	0.5
Cn1c2c(c(=O)n(C)c1=O)CN(CCN1CCNCC1)CN2	-2.0	2.4	0.1	·	0.685	-17.5	1.4
C#CCOCCOCCOCCNc1nc(N2CCN(C(=O)Cn3cc(CCO)nn3)CC2)nc(N2CCN(C(=O)[C@H](Cc3ccc(O)cc3)n3cc(CCO)nn3)CC2)n1	-5.6	1.2	·	i	·	·	-1.4
CCCn1c(N/N=C\C=C\c2ccccc2)nc2c1c(=O)[nH]c(=O)n2C	-5.1	·	1.3	i	·	-1.2	-1.9
CCCCN1CC(=O)N2[C@H]3c4cc(Cl)ccc4OC[C@@H]3[C@H](c3ccccc3)[C@]2(C)C1=O	-5.7	4.2	-0.2	i	·	-2.3	7.8
CC(C)(C)C(=O)CN1CCN(C2c3ccccc3-c3ccccc32)CC1	5.6	0.6	-2.9	·	0.691	-8.3	5.7
Fc1ccc2nc(Nc3nc4cc5c(cc4s3)OCCO5)sc2c1	6.5	-97.3	1.0	·	0.671	-3.6	1.4
CCN(CC)S(=O)(=O)c1cccc(C(=O)N2CCCc3ccccc32)c1	-2.0	2.5	-0.3	i	0.668	-15.1	3.4
Cc1cccc(N=Cc2cc(Br)cc(Cl)c2O)c1	2.6	6.6	5.3	i	0.648	16.4	-2.8
COc1ccc(S(=O)(=O)N2CCN(c3ccc4nnc(-c5ccc(F)cc5)n4n3)CC2)cc1	-2.7	0.3	-2.6	i	0.714	0.1	2.8
Cc1c(Cl)cccc1Nc1nc(N)nc(CN2CCc3ccccc3C2)n1	4.4	0.8	-6.4	·	0.672	-2.9	-2.9
CCCc1ncc(C(O)c2cccc(OC)c2OC)n1C (centres undefined)	-1.9	1.1	-3.4	·	0.669	-5.2	2.2
COc1cc2cc(CCOC(=O)CCCC(=O)O)oc(=O)c2cc1OC	-2.8	-0.8	-1.6	i	0.689	-3.7	0.7
C=CCn1c(CCSCc2ccc(OC)c(C)c2)n[nH]c1=S	2.6	3.8	2.7	i	0.696	44.2	2.8
COc1ccc(CNC(=O)CSc2nnc(-c3cccnc3)n2N)cc1	-12.2	1.9	2.7	i	0.702	-0.7	-2.5
COc1cc2c(cc1OC)CN(C(=O)CC1CC3CCC1C3)CC2 (centres undefined)	-7.4	14.6	-2.7	·	0.623	-6.0	0.0
O=C(Cc1ccccc1F)Nc1cccc2cccnc12	-6.7	·	1.3	i	·	-8.5	-2.0
COC(=O)c1ccc(CSc2nnc(SCc3ccc(C(=O)OC)o3)s2)o1	1.4	-0.7	-1.7	·	0.648	?	-1.4
COc1cc(Cl)cc(/C=C/c2ccc3cccc(O)c3n2)c1OC	3.0	4.7	4.4	i	0.716	-22.1	1.3
COc1ccc(Cl)cc1C(=O)OCC(=O)N(C)CC(=O)Nc1ccc(F)cc1	-3.4	2.5	1.4	i	0.65	-7.3	-3.4
CCOC(=O)CCN(Cc1cccs1)S(=O)(=O)c1ccc(Cl)cc1	-8.0	5.9	-2.6	i	0.669	2.7	1.7
CCS(=O)(=O)CCSc1nc2ccccc2s1	-16.7	-0.4	-2.5	·	0.705	99.0*	-0.1
CCOC(=O)CN(C(=O)CSc1nnc(CNc2ccc(C)cc2C)n1CC)c1ccccc1	-1.6	3.7	3.4	·	0.778	·	5.5
Cn1c(SCC(=O)Nc2cccc(S(=O)(=O)N3CCOCC3)c2)nnc1-c1ccncc1	9.3	3.1	-0.1	i	0.677	-3.7	-1.3
COc1cc(C(=O)Nc2ccc3nc4n(c(=O)c3c2)CCCC4)ccc1Br	-5.6	0.2	0.1	i	0.671	-0.1	1.8
O=C1Nc2ccc([N+](=O)[O-])cc2C1=Nc1cccc(CO)c1	23.2	55.8*	·	·	0.663	·	0.3
COc1ccc(S(=O)(=O)N2CCN=C2SCc2cccc(F)c2)cc1	-1.6	2.1	-1.2	i	0.693	-5.3	0.1
CCOc1cc(OCC)cc(C(=O)O)c1	-1.5	6.8	3.8	·	0.714	-8.1	1.9
Cc1nn(C(C)(C)C)c(OC(=O)CC(C)C)c1S(=O)(=O)c1ccccc1	-4.0	2.7	2.9	i	0.668	13.3	3.1
CN(c1ccc(OCC(=O)NC2=NCCS2)cc1)S(=O)(=O)c1ccc(F)cc1	-11.8	0.2	0.3	i	0.672	-4.5	-0.6
C=CCOC(=O)C1=C(C)Nc2ncnn2C1c1cccs1 (centres undefined)	2.0	-0.2	-1.5	·	0.683	8.0	3.4
CCOc1ccc(N2C(=O)CC(N(CCc3ccc(S(N)(=O)=O)cc3)C(C)=O)C2=O)cc1 (centres undefined)	-6.7	3.5	0.7	i	0.677	·	0.9
CCCCN1CCc2c(c3ccccc3n2Cc2ccccc2)C1	8.8	4.5	0.3	i	0.637	-9.4	2.1
O=C(/C=C/Nc1ccccc1Br)c1ccccn1	-10.0	4.9	5.3	·	·	-3.0	-1.2

Reprinted at random: 3 entries already listed, in no set order.
SMILES	Beta2AR agonist	UCH37 inh	LANA-H2B inh	FGF22 binding	E coli growth	ALR H2O2 inh	HNF4A DNA FP
CCOC(=O)CN(C(=O)CSc1nnc(CNc2ccc(C)cc2C)n1CC)c1ccccc1	-1.6	3.7	3.4	·	0.778	·	5.5
CCOc1ccc(N2C(=O)CC(N(CCc3ccc(S(N)(=O)=O)cc3)C(C)=O)C2=O)cc1 (centres undefined)	-6.7	3.5	0.7	i	0.677	·	0.9
CN(c1ccc(OCC(=O)NC2=NCCS2)cc1)S(=O)(=O)c1ccc(F)cc1	-11.8	0.2	0.3	i	0.672	-4.5	-0.6

(cont.)
SMILES	Beta2AR agonist	UCH37 inh	LANA-H2B inh	FGF22 binding	E coli growth	ALR H2O2 inh	HNF4A DNA FP
COc1cccc(CNC(=O)COc2cccc(-n3cnnn3)c2)c1	-6.4	-0.8	-0.1	i	0.689	0.7	1.8
Cc1ccc(S(=O)(=O)N2CCCCC2C(=O)Nc2nncs2)cc1 (centres undefined)	2.3	-2.3	2.1	i	0.67	-6.2	-1.1
CC(C)c1ccc(C2(C)NC(=O)N(CC(=O)NCC3COc4ccccc4O3)C2=O)cc1 (centres undefined)	-3.3	2.3	1.3	i	0.646	3.3	1.4
COc1cccc(/C=C(\C(=O)O)c2ccccc2)c1	-3.9	0.5	-1.0	i	0.677	4.1	-0.1
C=C1C2(C(=O)Nc3nccs3)CCC(C2)C1(C)C (centres undefined)	-3.7	3.2	-2.1	·	0.697	-5.6	3.3
CSc1ccc(S(=O)(=O)N2CCC(C(=O)Nc3ccc(C(N)=O)cc3)CC2)cc1	-1.6	1.9	-3.7	i	0.671	-8.0	-3.5
N#Cc1ccc(NC(=O)COC(=O)CCc2nc3ccccc3c(=O)[nH]2)cc1	6.0	2.9	2.8	i	0.741	·	0.1
O=C(Nc1ccc(-c2nc3ccccc3s2)cc1)C1=COCCO1	-9.2	-59.5	-3.1	·	0.729	-4.7	-0.3
O=C(Nc1ccccc1)N1N=CCC1c1ccccc1 (centres undefined)	-5.9	-0.1	·	i	0.627	·	1.4
CCN(C(=O)c1cn(CC)c(=O)c2cc(OC)c(OC)cc12)c1ccccc1C	-0.8	1.1	-1.5	·	0.735	-3.4	-0.7
CC(=O)Nc1cccc(-c2csc(NCc3ccccc3)n2)c1	-4.3	0.3	-1.2	i	0.705	67.3	0.9
Cc1cccc2cc(CN(Cc3ccc(F)cc3)C(=O)N3CCOCC3)c3nnnn3c12	0.2	5.3	3.3	·	0.687	-3.7	-0.2
COc1ccc2cc(C(C)C(=O)OC(C)C)ccc2c1 (centres undefined)	-6.2	1.6	-6.6	i	0.638	-1.6	1.8
O=C1CN(C(=O)COc2ccc(F)cc2Br)c2ccccc2N1	25.1	-1.0	1.4	i	0.674	-2.1	16.6

Copied from the list:
`Cc1ccc(S(=O)(=O)N2CCCCC2C(=O)Nc2nncs2)cc1` (centres undefined) – ALR H2O2 inh: -6.2
`CSc1ccc(S(=O)(=O)N2CCC(C(=O)Nc3ccc(C(N)=O)cc3)CC2)cc1` – HNF4A DNA FP: -3.5

Not all compounds are listed; count on the stated rates, not on these rows.
